Screening results (PubChem BioAssay)
Vaccinia pol inh: blocks vaccinia virus processive DNA synthesis; AID 493162; in vitro processive DNA synthesis, absorbance read-out; stronger effect = lower value; some inactives read as strong as hits; normalized absorbance, % (no concentration beside the values); actives 0.94% (n = 46,000);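 active means replicate mean up to 90% and picked by the depositor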;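 further: 100% = median of the test wells of a plate; 100 nL library stock went into each well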
The depositor's hits bear a star. These rows are one share of the data; count on the stated rates, not on these rows.

SMILES	Vaccinia pol inh
COc1ccc2c(c1)CCc1sc(/N=C/c3ccc(C)cc3)nc1-2	98
Cc1ccc(C)c(NC2=NCCC2)c1	102
Cc1cc(C(=O)NCc2ccccc2)on1	102
Cc1ccc(C(=O)Nc2ccc3c(c2)OCCO3)cc1	99
CC1CC(C)(C)Nc2ccc(OC(=O)c3ccco3)cc21 (stereo unspecified)	100
CCOc1ccc(N2CC(c3nc4ccccc4n3C(C)C)CC2=O)cc1 (stereo unspecified)	92
Cc1nc2ccc(C(=O)OCCC(F)(F)F)cc2[nH]1	101
Cn1nccc1NC(=O)/C=C/C(=O)O	99
Cc1ccccc1C1Nc2ccccc2S(=O)(=O)N1 (stereo unspecified)	93
CC1CCCC(C)N1Cc1ccc(N)cc1 (stereo unspecified)	98
O=C1/C(=C/c2ccccc2)CCC1C1CCCC1 (stereo unspecified)	106
O=c1nc(Oc2cccc(C(F)(F)F)c2)cc(Oc2cccc(C(F)(F)F)c2)[nH]1	100
NC(=O)C1CCN(C(=O)CN2C(=O)/C(=C/c3ccccc3F)Sc3ccccc32)CC1	97
CC1CCN(C(=O)COc2cccc3c2CCN(Cc2ccccc2)C3=O)CC1	100
c1ccc(COC(CNC2CCCCC2)CNC2CCCCC2)cc1	104
O=C(CN1C(=O)/C(=C\c2ccc(F)cc2)N=C1c1ccccc1)c1ccco1	103
CC(=O)Nc1ccc(S(=O)(=O)NCCC(c2ccccc2)c2ccccc2)cc1	100
O=C(CC1(O)C(=O)N(Cc2ccccc2)c2ccccc21)c1ccc(Br)cc1 (stereo unspecified)	100
COc1ccccc1COC(=O)C1CCC1	94
Cc1cccc(C)c1OCC(=O)N1CCc2ccccc21	95
c1ccc(-c2ncc3c(n2)-c2ccccc2CC3)cc1	91
O=C(NCc1cccnc1)c1nc(-c2ccc(Cl)cc2)n2c1CCCCC2	106
COC(=O)C1=C(NC(=O)C(C)(C)C)CCS1	102
CC1CC1C(=O)OCC(=O)Nc1cccc(Cl)c1 (stereo unspecified)	102
Fc1cccc(NCc2cn3cccnc3n2)c1	97
COc1ccc(C(=O)Nc2nc3c(OC)cccc3s2)cc1OC	97
Cc1c(C(=O)O)cc(-c2ccccc2)n1CCSc1cc(C(F)(F)F)nc2ccccc12	100
Cc1ccc(C)c(N2CCN(C(=O)c3ccc(/C=C4\Oc5ccccc5NC4=O)cc3)CC2)c1	92
Cc1cc(=O)cc(C)n1-c1ccccc1O	101
N#CCNS(=O)(=O)c1cc(Cl)ccc1Cl	99
Cc1ccc2nc(NCc3ccccc3)c(C=Nc3ccc(Cl)cc3)c(=O)n2c1	101
O=C(O)C1CC=CCC1C(=O)Nc1ccccc1F (stereo unspecified)	104
Cn1ccnc1C(=O)c1cccc(Br)c1	94
CC(C)c1nnc(NC(=O)CC23CC4CC(CC(C4)C2)C3)s1	101
CN(C)c1ccc(N=Cc2nc(-c3ccccc3)oc2O)cc1	100
CCCc1cnc(N2CCN(S(=O)(=O)c3cccs3)CC2)nc1	110
Cc1sc2c(c1C)c(=O)n(-c1ccc(Cl)cc1)c(=O)n2CC(=O)N1CCCCC1C (stereo unspecified)	101
COC(=O)c1sccc1NC(=S)Nc1ccccc1	94
Cc1ccc(Cn2c(N)nc3ccccc32)cc1	92
COC(=O)c1c(C)oc2ccc(OCc3ccccc3C)cc12	100
CC(=O)Nc1ccc2c(c1)CN(C1CCCCC1)CO2	89
CC(C)(CCl)Nc1nc2ccccc2s1	103
c1ccc(-n2ncc3c(NCc4cccs4)ncnc32)cc1	85
O=C(COc1ccccc1)NCc1nc2ccccc2n1Cc1ccc(Cl)cc1	103
CCN(CC)C(=O)c1cc(-c2cc(C(=O)N(CC)CC)c3ccccc3n2)nc2ccccc12	101
c1ccc(N2CCN(CCc3nnc4n3CCCCC4)CC2)cc1	100
Nc1c(C(=O)c2ccccc2)sc2nc3c(cc12)CCC3	102
Oc1ccccc1N=Cc1ccc2ncccc2c1	104
COc1ccc2[nH]c3c(=O)n(CC(=O)NC4CCCCCC4)c(=S)[nH]c3c2c1	102
COC(=O)c1ccc2c(=O)n(CC3CCCO3)c(SCC(=O)Nc3ccccc3Cl)nc2c1 (stereo unspecified)	99
CC(=O)Nc1ccccc1OCc1cnc(Cl)s1	107
CCOC(=O)c1[nH]c(C)c(C(=O)C(C)C)c1C	100
Cn1nc(C(F)(F)F)c(CNC(=O)c2ccc(C(F)(F)F)cc2)c1N1CCOCC1	107
COc1cccc([C@H]2C(C#N)=C(N)C(C#N)(C#N)C3=CCC(C)C[C@@H]32)c1 (stereo partly specified)	97
CCc1ccc(Nc2cc(C(=O)O)c3ccccc3n2)cc1	96
O=C(O)CC12CC3CC(CC(O)(C3)C1)C2	106
O=C(CC(O)(c1ccccc1)c1ccccc1)Nc1ccccc1	100
Cc1cc(C)cc(NC(=O)N2CCOc3ccc(C)cc32)c1	108
C=C(C)c1cccc(C(C)(C)NC(=O)N2CCC(C)CC2)c1	100
CSc1nnc(NC(=O)c2ccco2)s1	102

Some of the entries so far, as labelled records.
> CSc1nnc(NC(=O)c2ccco2)s1
  Vaccinia pol inh = 102
> O=C(COc1ccccc1)NCc1nc2ccccc2n1Cc1ccc(Cl)cc1
  Vaccinia pol inh = 103
> CCc1ccc(Nc2cc(C(=O)O)c3ccccc3n2)cc1
  Vaccinia pol inh = 96
> c1ccc(N2CCN(CCc3nnc4n3CCCCC4)CC2)cc1
  Vaccinia pol inh = 100

Additional entries.
SMILES	Vaccinia pol inh
C=CCN(CC=C)C(=O)c1ccc(I)cc1	103
CC(=O)C1=C(O)C=C(c2ccc(C)o2)CC1c1ccccc1 (stereo unspecified)	98
Cc1c(C(=O)c2ccccc2)c2ccccn2c1CCC#N	106
CCNc1nc(SCC(=O)NC(=O)NCc2ccccc2)nc2sc3c(c12)CCN(C)C3	94
O=C(C1CCCN1S(=O)(=O)c1ccc(Cl)cc1)N1CCc2ccccc2C1 (stereo unspecified)	100
COC(=O)c1scc2c(Sc3ccc(Cl)cc3)cc(C(F)(F)F)nc12	104
CCC(=O)Nc1ccc2c(c1)N(CC)C(C)(C)CC2C (stereo unspecified)	103
CC1=NN(c2ccccc2)C(=O)C12C1C=CC(C1)C2(C(F)(F)F)C(F)(F)F (stereo unspecified)	93
Cc1ccccc1NC(=O)NC(=O)CC#N	91
Cc1cc(C)cc(N=Cc2c(C(F)(F)F)nn(C)c2Cl)c1	111
O=S1(=O)N=C(N(Cc2cccs2)c2ccc(O)cc2)c2ccccc21	108
CC(C)NCC(O)COc1cccc2[nH]ccc12 (stereo unspecified)	97
Cc1ccc(C#N)c(SCc2nnc(-c3ccc(Cl)cc3)o2)n1	100
CCOc1nc(NC(=O)NC(=O)c2cccs2)nc(-c2ccccc2)n1	100
CCOC(=O)CSc1nc2ccccc2s1	100
COc1ccccc1Nc1ncc(C(=O)NCCCN2CCC(C)CC2)c2ccccc12	97
Cc1ccccc1C(=O)C(C#N)c1nc2ccc(C(F)(F)F)cc2s1 (stereo unspecified)	92
Cc1ccc(CNC(=O)Cc2ccc(-n3c(=O)c4sccc4n(Cc4ccccc4)c3=O)cc2)cc1	91
CCCn1cc(S(=O)(=O)c2ccc(C)cc2)c(=O)c2cc(F)c(N3CCN(CC)CC3)cc21	103
CCC(C)Cn1c(CC(C)(C)C)nc2ccccc21 (stereo unspecified)	103

The closing 12 entries of the section above are carried over, then new ones follow.
SMILES	Vaccinia pol inh
Cc1ccccc1NC(=O)NC(=O)CC#N	91
Cc1cc(C)cc(N=Cc2c(C(F)(F)F)nn(C)c2Cl)c1	111
O=S1(=O)N=C(N(Cc2cccs2)c2ccc(O)cc2)c2ccccc21	108
CC(C)NCC(O)COc1cccc2[nH]ccc12 (stereo unspecified)	97
Cc1ccc(C#N)c(SCc2nnc(-c3ccc(Cl)cc3)o2)n1	100
CCOc1nc(NC(=O)NC(=O)c2cccs2)nc(-c2ccccc2)n1	100
CCOC(=O)CSc1nc2ccccc2s1	100
COc1ccccc1Nc1ncc(C(=O)NCCCN2CCC(C)CC2)c2ccccc12	97
Cc1ccccc1C(=O)C(C#N)c1nc2ccc(C(F)(F)F)cc2s1 (stereo unspecified)	92
Cc1ccc(CNC(=O)Cc2ccc(-n3c(=O)c4sccc4n(Cc4ccccc4)c3=O)cc2)cc1	91
CCCn1cc(S(=O)(=O)c2ccc(C)cc2)c(=O)c2cc(F)c(N3CCN(CC)CC3)cc21	103
CCC(C)Cn1c(CC(C)(C)C)nc2ccccc21 (stereo unspecified)	103
CCCn1c(CCC(=O)Nc2ccccc2)nc2cccnc21	100
Cc1nc2ccccc2c2oc(C(=O)NCCN3CCN(C)CC3)cc12	62*
CN(C(=O)COC(=O)c1ccc2ccccc2n1)C1CCCCC1	103
O=C(NCc1ccco1)c1cc(=O)c2ccccc2o1	88
Cc1cc(C)n2cc(CSCc3ccccc3)nc2n1	94
O=C1NNC(c2ccccc2)=N/C1=C\c1ccccc1	101
CCc1nn(CC(=O)NC2CC2)c(=O)c2cc3occc3n12	102
CSC(=NS(=O)(=O)c1ccccc1)SC	93
CCS(=O)(=O)C(=C(Nc1ccccc1)Nc1ccccc1)S(=O)(=O)CC	101
COc1ccc(N2CCN(CCCNC(=O)C3CCCN(S(=O)(=O)c4cnc[nH]4)C3)CC2)cc1 (stereo unspecified)	105
CCOC(=O)c1c(C)n(OCc2ccccc2)c2ccc3nonc3c12	100
Cn1c(=NC(=O)CCSc2ccccc2)sc2cc(Cl)ccc21	100
COc1ccc(Cn2c(CCC(=O)NCc3ccccc3)nc3cccnc32)cc1	100
Cc1cc(C(=O)n2ccc(-c3cccs3)n2)c(C)o1	88
COc1ccc(-c2c(C)nn3c(N4CCc5ccccc54)cc(C)nc23)cc1OC	98
O=C(COC(=O)c1ccncc1)c1ccc2ccccc2c1	109
Cc1ccc(NCC#N)cc1	99
COc1ccccc1CNC(=O)c1nn(C)c2c1COc1ccccc1-2	102
Cc1ccnc(NC(=O)CCC2COc3ccccc3O2)c1 (stereo unspecified)	111
O=C(COC(=O)c1ccccc1)Nc1ncc(C(F)(F)F)cc1Cl	101
O=C(O)c1ccccc1Nc1ccccc1	99
CCCn1nnnc1NCc1ccc(C(C)C)cc1	110
N#Cc1ccccc1N=Cc1ccc(Br)cc1	100
Cc1nnn(C23CC4CC(CC(C(=O)NCc5ccccc5)(C4)C2)C3)n1	101
CC(C)NC(=O)Cn1c(=O)c2cccn2c2cccnc21	92
O=S(=O)(c1ccccc1)c1cnc2ccccc2c1N1CCC2(CC1)OCCO2	102
CC(=O)N1N=C(c2cccs2)CC1c1cccs1 (stereo unspecified)	100
CCCc1cc(=O)oc2cc(OC(C)C)c(Cl)cc12	101
CN1C2CCC1CC(NC(=O)Nc1ccc(Br)cc1)C2 (stereo unspecified)	106
COc1ccc(Cl)cc1NC(=O)CCN1CCN(c2ccccc2C)CC1	100
COc1ccc(/C=C2\CC/C(=C\CC(C)C)C2=O)cc1Br	100
COc1ccc(C=Nc2cccc(Cl)c2)cc1	100
O=C(CSc1oc(-c2ccccc2)nc1S(=O)(=O)c1ccc(Cl)cc1)NCC1CCCO1 (stereo unspecified)	104
CC1=NN(c2ccccc2)C(=O)C(C=C2C(=O)N(C)C(=S)N(C)C2=O)C1 (stereo unspecified)	100
O=C(O)C1CCCCC1C(=O)N1CCCC1 (stereo unspecified)	98
CC(C)(C)c1ccc(C(=O)N2CCCc3ccccc32)cc1	100
COc1ccc(N=C(N)/C(C#N)=C/c2[nH]c3ccccc3c2O)cc1	100
COc1ccc(-c2onc3ccc4c5ccccc5oc4c23)cc1OC	94
COc1ccc(C(=O)CSc2nc(C)c(C(N)=O)c(C)c2C#N)cc1	96
Cc1nc2ccc(S(=O)(=O)NC(C(=O)Nc3ccccc3C)c3ccccc3)cc2s1 (stereo unspecified)	97
Cc1cccc(N(CC(=O)O)CC(=O)O)c1	100
Cc1ccc(-c2cc(O)cc3sc(=O)oc23)cc1C	92
CCc1ccc(CNc2ccc3c(c2)ncn3C)cc1	99
NC(=O)c1cc(N)ccc1N1CCCCC1	100
Cc1ccc(CN2CCS(=O)(=O)CC2)cc1	95
COCCn1c(=NC(C)=O)sc2cc(S(C)(=O)=O)ccc21	100
CCc1nc(N2CCCCC2)c(C#N)c2c1CCCC2	101
O=C(O)C12CC3CC(C1)CC(n1cnc(Cl)n1)(C3)C2	97
O=C(/C=C/c1ccccc1)NC1CCS(=O)(=O)C1 (stereo unspecified)	101
CCCCc1ccc2nc3sc(C(=O)O)cc3cc2c1	100
CC(C)(C)C(=O)NCCc1nc2ccccc2n1Cc1ccccc1F	101
O=C(/C=C/c1cn(-c2ccccc2)nc1-c1ccccc1)OCC(=O)N1CCCC1	97
Cn1c(=O)c2cc(C(=O)NCc3cccs3)sc2c2ccccc21	99
COc1cc(OC)c(NC2=CC(=O)C(=O)c3ccccc32)cc1Cl	100
CCOc1cc(/C=C2\SC(=S)N(c3ccccc3)C2=O)ccc1O	89
N#CC(C(=O)c1ccccc1Cl)=C1SCCCS1	90
Cc1ccc(C(=O)N=c2c(=O)nc(C)n(-c3ccccc3)n2C)cc1	100
CC1CCN(S(=O)(=O)c2ccc3[nH]c(=O)cc(C(=O)NCCCN4CCOCC4)c3c2)CC1	100
Cc1ccccc1-c1nnn(CC(=O)NC2CCCCC2)n1	88
COC(=O)C1CCN(c2ncc(C(F)(F)F)cc2Cl)CC1	98

(continued)
SMILES	Vaccinia pol inh
COc1cccc2cc(-c3csc(N)n3)c(=O)oc12	99
O=C(O)C1CCCNC1 (stereo unspecified)	103
CCOC(=O)c1c(C)n(C)c2ccc(OC(=O)c3ccc(OC)cc3)cc12	98
CCOC(=O)c1cc(-c2ccco2)nn1-c1cccc(Cl)c1	77
CN(CC(=O)Nc1ccc(C(F)(F)F)cc1)S(=O)(=O)c1cccs1	99
CCN(CC)S(=O)(=O)c1ccc(Nc2c3c(nc4ccccc24)CCCC3)cc1	103
CN(C)C(=O)n1cc(C#N)c(-c2cccs2)n1	105
COc1ccc(NC(=O)Nc2cc(F)cc(F)c2)cc1OC1CCCC1	101
Cc1cc2nccc(C(C)Oc3ccc(Cl)cc3Cl)n2n1 (stereo unspecified)	106
CO[C@]12C[C@@H](COC(=O)c3cncc(Br)c3)CN(C)[C@@H]1Cc1cn(C)c3cccc2c13	94
